VACV Venus inh = inhibitors of vaccinia virus (Venus reporter). Vaccinia virus Venus reporter expression, fluorescence. Potency, µM (highest dose often 36.5 µM), for the others: top-dose activity change, negative = inhibition, actives largely listed as inhibitors. 0.46% of 330,000 active; active means well fitted inhibition curve with a large enough effect; inconclusive means small, poorly fitted or top-dose-only effect; inactive means no such curve, though single readings can be large or run the other way; tested in A549 cells; note: nearly all actives have a fitted effect of over 30% in size; inactives centre near -10
Vaccinia mCherry = vaccinia inhibition (mCherry reporter) | Potency, µM (titrated, usually from 36.5 µM), without a hit: top-dose activity change, negative = inhibition, hits mostly inhibitors | 0.63% of 310,000 active | AID 720579 | Vaccinia virus mCherry reporter infection, fluorescence; about a quarter of the inactives have no number; active = well fitted inhibition curve with a large enough effect; inconclusive = small, poorly fitted or top-dose-only effect; inactive = no such curve, though single readings can be large or run the other way; tested in A549 cells; note: nearly all actives have a fitted effect of over 35% in size; inactives centre near -10
Starred values were filed as active, the others as inactive; i = inactive; ? = inconclusive; . = no result given; & = joins results of further samples; [ ] = remark or other dose. % is set by controls: 0 for no effect and ±100 for the full control effect; potency is the fitted concentration of half-maximal effect.

Order of results – VACV Venus inh | Vaccinia mCherry
Cc1ccc(-n2c(SCC(=O)O)nc3sc4c(c3c2=O)CCCC4)cc1
    -14.5%&-7.1% | -12.1%&-4.3%
Cc1cccc(Cn2c(=O)n(CCc3ccccc3)c(=O)c3c(C)c(C)sc32)c1
    0.0% | -16.1%
CCN(CC)CCOC(=O)C(Cc1ccco1)Cc1cccc2ccccc12 (centres undefined)
    -22.4% | -2.5%
Oc1cc(-c2nc3ccccc3s2)cc2c1OCCN(Cc1cccn1-c1ncccn1)C2
    -1.5% | -12.7%
S=C1SCN(CCc2ccccc2)CN1CCc1ccccc1
    -21.0% | -26.4%
Cn1ncc2nnn(-c3ccccc3)c(=O)c21
    10.7% | .
CCCC1(C(=O)OCC)NC(c2ccc(N(C)C)cc2)C2C(=O)N(c3ccccc3)C(=O)C21 (centres undefined)
    -3.6% | -13.3%
COc1cccc(-n2nc3c(=O)n(Cc4ccccc4Cl)nc(C)c3c2C)c1
    -0.9% | i
COc1ccc(-n2nc3c(c2NC(=O)C2CCCC2)CS(=O)C3)cc1 (centres undefined)
    -3.2% | i
Cc1ccc(/C=C/C(=O)Nc2cc(S(=O)(=O)N3CCCCCC3)ccc2OCC(F)(F)F)o1
    -12.8% | -5.0%
O=C(NCc1ccccc1)c1ccc(Br)cc1Br
    -12.1% | -12.2%
Clc1ccc(Cn2cc(/C=N/n3cnnc3)c3ccccc32)cc1
    ? | .
CNc1cncc(-c2cc(OC)ccc2OC)n1
    -5.8% | -17.7%
CC(NC(=S)Nc1ccc(OC(F)F)cc1)c1ccc(F)cc1 (centres undefined)
    -17.7% | -17.0%
Cc1cc(=O)n(CC(C)O)c(O)c1C#N (centres undefined)
    -2.3% | i
COC(=O)c1c(NC(=O)COc2ccccc2Cl)sc2c1CCC(C(C)(C)C)C2 (centres undefined)
    -0.6% | -7.5%
COc1cc(C2CC(=O)Oc3c(C(CCN4CCN(c5ccccc5)CC4)c4ccc(N(C)C)cc4)c(OC)cc(OC)c32)cc(OC)c1OC (centres undefined)
    -10.7% | i
O=C(Cn1ccc([N+](=O)[O-])n1)NCc1ccccc1
    -18.2% | i
CC(=O)N1CCc2cc(N=NC3=C(O)CCCC3=O)ccc21
    -1.9% | -12.1%
COc1cc(NC(=O)Cn2ncc3c(=O)oc4ccccc4c32)cc(OC)c1OC
    -7.1% | -4.3%
Cc1ccc(C)c(C(C)NC(=O)CC#N)c1 (centres undefined)
    -11.0% | i
S=C1NC2=C(CCC/C2=C\c2ccccc2)C(c2ccccc2)N1 (centres undefined)
    3.2% | i
CCCc1c(-c2ccc(F)cc2F)ncn1Cc1ccccc1OC
    -14.1% | -5.3%
CC(C)c1ccc(NC(=S)N2CCN(S(=O)(=O)c3ccccc3)CC2)cc1
    -15.3% | -12.3%
O=C(NNc1nc(=O)c2cccnc2s1)c1ccccc1O
    -2.3% | -7.2%
CCCc1cc2c(=O)c(-c3nc4ccccc4s3)c(COCC(=O)O)oc2cc1O
    2.3% | -6.2%
Cc1nnc(SCC(=O)Nc2sc3c(c2C#N)CCCC3)[nH]c1=O
    2.2% | .
CN(C)Cc1ccccc1Sc1ccc(O)cc1O
    -15.6% | -15.3%
O=C(CN1CCOCC1)c1ccc2cc[nH]c2c1
    -4.0% | -7.7%
CC12CC[C@H]3[C@@H](CCC4(O)C[C@H](O)CCC34/C=N/NC(=O)c3ccccc3[N+](=O)[O-])C1(O)CCC2C1=CC(=O)OC1 (some centres undefined)
    10µM* | ?

Reformatted: results already given.
CC(NC(=S)Nc1ccc(OC(F)F)cc1)c1ccc(F)cc1 (centres undefined)
  VACV Venus inh: -17.7%	Vaccinia mCherry: -17.0%
CC12CC[C@H]3[C@@H](CCC4(O)C[C@H](O)CCC34/C=N/NC(=O)c3ccccc3[N+](=O)[O-])C1(O)CCC2C1=CC(=O)OC1 (some centres undefined)
  VACV Venus inh: 10µM*	Vaccinia mCherry: ?
Cc1cccc(Cn2c(=O)n(CCc3ccccc3)c(=O)c3c(C)c(C)sc32)c1
  VACV Venus inh: 0.0%	Vaccinia mCherry: -16.1%
COc1cc(C2CC(=O)Oc3c(C(CCN4CCN(c5ccccc5)CC4)c4ccc(N(C)C)cc4)c(OC)cc(OC)c32)cc(OC)c1OC (centres undefined)
  VACV Venus inh: -10.7%	Vaccinia mCherry: i

(more compounds)
Order of results – VACV Venus inh | Vaccinia mCherry
C=CCn1c(C)cc(C(=O)COC(=O)C2CC(=O)N(Cc3ccccc3)C2)c1C (centres undefined)
    -4.3% | -13.7%
CCCCn1c(N)c(N(Cc2ccccc2OC)C(=O)C(C)Oc2ccc(F)cc2)c(=O)[nH]c1=O (centres undefined)
    -7.0% | -15.3%
Cc1ccc2c(c1)NC(=O)C(CC(=O)NCCCN1CCCC1=O)O2 (centres undefined)
    -1.8% | -10.3%
CCn1c(=O)c2sccc2n2c(CCCC(=O)N3CCN(c4cccc(Cl)c4)CC3)nnc12
    -3.1% | -8.2%
CCCN1CCN(CCCNC(=O)c2cc3c(=O)n(CC)c4ccccc4c3s2)CC1
    -16.0% | -18.4%
COc1ccc(C2/C(=C(/O)c3ccc(C)cc3)C(=O)C(=O)N2CC2CCCO2)cc1OC (centres undefined)
    -13.8% | -3.6%
CN(C)S(=O)(=O)c1ccc2c(c1)N(CC(=O)NCc1ccc(F)cc1)C(=O)CS2
    -9.2% | -5.8%
CC1CN(C(=O)Nc2ccccc2)c2ccccc2-[n+]2ccsc21 (centres undefined)
    -3.4% | -5.7%
O=C(Nc1ncccc1Cl)c1ccc2c(c1)OCCO2
    -7.9% | -7.5%
COc1ccc(N2C(=O)CC(N3CCCC4CCCCC43)C2=O)cc1 (centres undefined)
    13.3% | i
Cc1cc(C)c2c(NC(=S)NC(=O)c3ccccc3)nn(C)c2n1
    -2.3% | i
COc1cc(CN(C(=O)COc2ccc(C)cc2)c2ccccn2)cc(OC)c1OC
    -4.9% | -15.1%
COC(=O)[C@H]1C[C@H](OC(=O)NCc2ccc(OC)c(OC)c2)[C@@]2(O)CN(S(=O)(=O)c3ccc(C)cc3)CC2[C@H]1C(=O)OC (some centres undefined)
    -5.1% | -11.3%
c1ccc(C2=Nn3c(nnc3-c3ccncc3)SC2)cc1
    -4.8% | i
COc1ccccc1/C=N/NC(=O)c1csc(C)c1C
    0.0% | i
Cc1cc(C)cc(C(=O)NC(CC(N)=O)c2ccc(NC3CCCCC3)c([N+](=O)[O-])c2)c1 (centres undefined)
    -20.4% | i
FC(F)C(F)(F)Oc1cccc(Nc2nccn3c(-c4cccc5cccnc45)cnc23)c1
    -14.5% | -13.8%
CCOc1ccc(NC(=O)Cn2c(=O)n(CCCC(=O)NCc3ccc4c(c3)OCO4)c(=O)c3ccccc32)cc1
    -0.5% | 3.7%
COc1ccc(CN(C)S(=O)(=O)c2nnc(NC(=O)c3cccc(F)c3)s2)cc1
    -17.0% | i
CCOC(=O)/C(C#N)=C/c1c(Oc2cccc(C)c2)nc2c(C)cccn2c1=O
    -5.1% | -12.6%
CCOC(=O)c1c(-c2ccccc2)oc2ccc(NS(=O)(=O)c3ccc(C(C)C)cc3)cc12
    -2.4% | -6.8%
COCc1nc(-c2ccc(-c3ccccc3)nc2OC)no1
    -8.7% | -19.3%
CCCOc1ccc(C(=O)NCCC(=O)NCCCC(=O)O)cc1
    -13.1% | -14.4%
CC(=O)Nc1ccc(NC(=O)CSc2nccn2Cc2ccco2)cc1
    -11.2% | -1.6%
COc1ccc(C(=O)c2coc3c2C(=O)C(=O)c2ccccc2-3)cc1
    ? | -13.2%
CC1(C(=O)NCc2ccc(Cl)cc2)CCN1C(=O)Cc1cccc2ccccc12 (centres undefined)
    -14.2% | -19.6%
CC(=O)Nc1ccc(CN(C)c2c(C)nc3ccc(C(=O)NC4CCN(Cc5ccccc5)CC4)cn23)cc1
    -21.6% | -0.2%
Cc1onc(-c2ccccc2)c1C(=O)N[C@@H]1C(=O)N2C1SC(C)(C)[C@@H]2C(=O)O (some centres undefined)
    -13.0% | i
Cc1nc(NC(=O)c2ccncc2)sc1C(=O)N(C)C
    -17.8% | i
CS(=O)(=O)N1CCN(c2ccccc2NC(=O)c2ccc3ccccc3c2)CC1
    -5.9% | -15.3%

(further entries)
Order of results – VACV Venus inh | Vaccinia mCherry
CC1C[N+](=C2C=C(N3CCOCC3)CC(C)(C)C2)CC(C)O1 (centres undefined)
    3.6% | i
Cc1ccc(C)c(S(=O)(=O)NC(C)C(=O)Nc2ccc(-c3nc4ccccc4s3)cc2)c1 (centres undefined)
    -3.3% | -13.7%
CC1CCc2c(sc(NC(=O)CN3CCN(C(=O)c4ccco4)CC3)c2C#N)C1 (centres undefined)
    -15.9% | -4.7%
COCCCNC1CS(=O)(=O)CC1O (centres undefined)
    -5.5% | i
Cc1ccc(OCC(=O)Nc2ccc(N3CCN(C(=O)c4ccco4)CC3)cc2)c(C)c1
    -24.3% | -21.4%
Cc1ccc(-c2c3c(=O)n(C)c(=O)n(C)c3cn2Cc2ccccn2)cc1
    -13.0% | .
Cc1ccc(S(=O)(=O)N2CCC(N3CCN(Cc4ccccc4)C(=O)C3=O)CC2)cc1C
    -25.7% | ?
CCN(c1ccccc1)S(=O)(=O)c1ccc(NC(=S)NC(=O)c2cccs2)cc1
    ? | -8.7%[1.46 µM]
CCc1ccccc1NC(=O)c1cc(S(=O)(=O)N2CCCC2)cn1C
    -14.2% | -5.0%
Cc1ccc(NC(=O)Nc2cccnc2)cc1Cl
    -20.8% | -16.8%
c1cc(CNc2ccc3c(c2)OCCO3)ccn1
    -9.0% | .
CC(=O)C(Cc1ccccc1)(Cc1ccccc1)C(C)=O
    -7.7% | -18.4%
C=CCNC(=O)c1cc(-c2ccccc2O)on1
    -11.4% | -10.5%
CCCc1nc2c(s1)CCc1onc(-c3cccc([N+](=O)[O-])c3)c1-2
    -3.0% | -3.7%
COc1cccc(SCc2noc(C(=O)NCC3CC3)c2C(=O)NCC2CC2)c1
    -8.6% | -5.0%
CCOc1ccc(C(=O)NCc2ccco2)cc1Cl
    -16.4% | -1.1%
Cc1ccnc(SCCn2c(N3CCN(Cc4ccccc4)CC3)nc3c2c(=O)[nH]c(=O)n3C)n1
    -9.8% | i
Cc1ccc(N(CC(=O)NCc2ccco2)C(=O)CNS(=O)(=O)c2ccccc2)c(C)c1
    -9.5% | ?
CCCc1nnc(NC(=O)CCCC(=O)O)s1
    -10.3% | .
Cc1cccc(NC(=O)Cn2c(C(F)(F)F)nc3ccccc32)c1C
    -12.4% | -17.3%
O=C(O)C(O)Cc1c[nH]c2ccccc12 (centres undefined)
    4.2% | 2.4%
CCC(=O)C(C#N)(c1ccc(OC)c(OC)c1)C(C)C (centres undefined)
    -9.3% | -13.6%
CCOc1ccc(C(Nc2ccc(C)cc2)P2(=O)OCCCO2)cc1 (centres undefined)
    -14.0% | .
O=C(N1CCCC1)C(F)(F)Oc1ccc(F)cc1
    -1.6% | -16.1%
CCOC(=O)c1c(C)[nH]c(C(=O)COC(=O)C2=NNC(=O)CC2)c1C
    -13.7% | i
CCN(c1ncnc2c1c(-c1ccccc1)cn2-c1ccccc1)C1CCCCC1
    -7.6% | -14.3%
O=C(NC1C(=O)NNC1c1ccccc1)c1ccc(F)cc1 (centres undefined)
    3.0% | -11.4%
CC(C)CN1C(=O)CSCC1(C)C(=O)NCc1ccccc1 (centres undefined)
    -1.9% | i
COc1ccc(Cn2c(C(=O)O)c(CNCc3ccc(SC)cc3)c3ccc(OC)cc32)cc1
    ? | -16.3%
COc1ccc(-c2ccc(NS(=O)(=O)c3cccc(C)c3)cc2)nn1
    -8.4% | -10.6%

One compound at a time, as listed above:
CCOC(=O)c1c(C)[nH]c(C(=O)COC(=O)C2=NNC(=O)CC2)c1C across the screens: VACV Venus inh: -13.7%; Vaccinia mCherry: i
CCOc1ccc(C(Nc2ccc(C)cc2)P2(=O)OCCCO2)cc1 (centres undefined) across the screens: VACV Venus inh: -14.0%; Vaccinia mCherry: .

Going on with the list:
Order of results – VACV Venus inh | Vaccinia mCherry
Cc1ccc(-n2c(=O)cc(N3CCN(Cc4ccccc4)CC3)[nH]c2=O)cc1
    -18.8% | i
O=C(Nc1cccc(S(=O)(=O)c2cccc(NC(=O)C3CC3)c2)c1)C1CC1
    ? | -14.2%
Cc1oc2c(O)c(O)ccc2c(=O)c1-c1ccccc1
    ? | ?
Cc1cc(C)nc(NC(=O)c2ccc(Cl)c([N+](=O)[O-])c2)n1
    6.6% | i
COc1nc(OCC#N)nc(N2CCCCC2)n1
    -5.8% | i
COc1ccc2c(c1OC)c(=O)n1c3ccc(OC(C)C(=O)NCCCN4CCOCC4)cc3c3ccnc2c31 (centres undefined)
    -3.0% | -1.0%
Cc1ccc(S(=O)(=O)NC2CCCCCC2)cc1
    -11.6% | -9.2%
CCOC(=O)c1ccc(Nc2c(OCC)c(=O)c2=O)cc1
    -16.1% | -9.8%
CCn1cc(C(=O)N2CCN(c3ccccc3F)CC2)c(=O)c2ccc(C)nc21
    ? | -13.0%
CCOc1ccc(CCNC(=O)c2cccc(S(=O)(=O)N3CC(C)OC(C)C3)c2)cc1OCC (centres undefined)
    -29.3% | -15.6%
Cc1ccc(C2OC(=O)C=C2c2ccccc2)cc1 (centres undefined)
    -3.1% | i
Cc1ccc(NC(=S)NC(=O)C2CCCC2)cc1C
    -12.8% | -7.8%
CC(C)(C)N=C1NN=C(c2cc3ccccc3o2)CS1
    -2.8% | -2.5%
